YjeE inh – displaces an ADP probe from E. coli YjeE (TsaE); P0AF67; purified YjeE, fluorescence polarisation of a bound ADP probe; Potency, µM; 0.05% of 71,000 active; active = well fitted falling curve; inconclusive = weaker or top-dose-only fall, or a rising curve; inactive = flat or poorly fitted curve;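 note: top concentration of the series not given in the record; excess ADP was the control for the full effect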
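Purified YjeE (10 uM) with BODIPY Texas Red-labeled ADP probe (2 uM); compounds pin-transferred, 15 min at room temperature. Binding inhibition read as decreased fluorescence polarization; ADP titration as control.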
Bst PK mod – modulators of Bacillus stearothermophilus pyruvate kinase; Potency, µM; partly purified Bacillus stearothermophilus pyruvate kinase, luminescence ATP production; ribose 5-phosphate activator present at AC10; 1.2% of 51,000 active; in the data active means potency below about 11 µM; inconclusive means mostly about 12 µM to 25 µM; inactive means weaker than that;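 the screen sought inhibitors and activators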;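 note: potency is the fitted concentration of half-maximal effect; scaled between full activation by ribose 5 phosphate and full inhibition by luteolin; about four in five hits inhibit and the cells do not say which; series up to 57 µM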
The depositor's hits bear a star; i = inactive; ? = inconclusive; / = no result given. Some of the compounds tested, so the mix of outcomes need not match the whole.

SMILES	YjeE inh	Bst PK mod
O=C(Cn1cnc2c(cnn2-c2ccccc2)c1=O)OCc1ccccc1	i	>57
CCOC(=O)CSC1=C(C#N)C(c2ccccc2)C(C(C)=O)=C(C)N1 (centres undefined)	i	>57
O=S(=O)(O)c1ccc(-c2nnc(-c3ccccn3)nc2-c2ccc(S(=O)(=O)O)o2)o1	i	/
CC(=NCCc1ccccc1)C1=C(O)COC1=O	i	/
CCCn1c(=C(C#N)C#N)s/c(=C2\C=Cc3ccccc3N2CC)c1=O	i	>57
CN1CCN(CCCNC(=O)c2ccc3c(c2)N(Cc2ccccc2)CCS3)CC1	i	/
O=C(Cn1c(C(=O)NCCCN2CCOCC2)cc2sccc21)c1ccccc1	i	>57
CC(=O)N1C(=O)C(=C2C=C(C)OC(C)=C2)c2ccccc21	i	>57
CCCc1[nH]nc2c1C(/C(C)=C/c1ccccc1)C(C#N)=C(N)O2 (centres undefined)	i	>57
CCN1CCC2(CC1)C(C#N)=C(N)Oc1c2sc2nc(C)cc(C)c12	i	/
COCCN1C(=O)c2oc3ccccc3c(=O)c2C1c1cccc(O)c1 (centres undefined)	i	/
COc1ncc2nc(CCc3ccccc3)c(=O)n(C3CC3)c2n1	i	/
COc1ccc(C(O)C(CC(=O)NCCCOC(C)C)C(=O)NCCCOC(C)C)cc1OC (centres undefined)	i	>57
CCC(Sc1nccn1C)C(=O)Nc1cccc2ccccc12 (centres undefined)	i	/
Cc1noc(C)c1-c1nc(NC2CC2)c2ccccc2n1	i	/
Cc1cc(Nc2ccc(C(C)C)cc2)n2ncnc2n1	i	/
O=C(O)CCSSCCC(=O)O	i	/
CC(C)N1CCc2c(sc(NC(=O)c3ccc(S(=O)(=O)N4CCOCC4)cc3)c2C(N)=O)C1	i	/
Cc1onc(-c2ccccc2)c1C(=O)N1CCCc2ccccc21	i	/
CCN(CC)S(=O)(=O)N1CCC(C(=O)NC2CCCC2)CC1	i	>57
COCCNC(=O)c1ccccc1-c1ccccc1C(=O)O	i	>57
COc1ccc(CNC(=O)Nc2ccc(OC)cc2)cc1	i	>57
COc1ccc(C(=O)N2CCN(c3ccc(C)c(C)c3)CC2)cc1OC	i	/
CCC(C)NC(=O)C1=C(C)C(=O)OC12CCC(C)CC2 (centres undefined)	i	/
O=C(CN1CCN(C(=O)c2c(F)cccc2F)CC1)Nc1ccccc1F	i	>57

Gathered by group, the entries above containing an aryl methoxy group
SMILES	YjeE inh	Bst PK mod
COc1ncc2nc(CCc3ccccc3)c(=O)n(C3CC3)c2n1	i	/
COc1ccc(C(O)C(CC(=O)NCCCOC(C)C)C(=O)NCCCOC(C)C)cc1OC (centres undefined)	i	>57
COc1ccc(CNC(=O)Nc2ccc(OC)cc2)cc1	i	>57
COc1ccc(C(=O)N2CCN(c3ccc(C)c(C)c3)CC2)cc1OC	i	/

Pulled by structure from above (6):
SMILES	YjeE inh	Bst PK mod
O=S(=O)(O)c1ccc(-c2nnc(-c3ccccn3)nc2-c2ccc(S(=O)(=O)O)o2)o1	i	/
COCCNC(=O)c1ccccc1-c1ccccc1C(=O)O	i	>57
CN1CCN(CCCNC(=O)c2ccc3c(c2)N(Cc2ccccc2)CCS3)CC1	i	/
CCCc1[nH]nc2c1C(/C(C)=C/c1ccccc1)C(C#N)=C(N)O2 (centres undefined)	i	>57
CC(C)N1CCc2c(sc(NC(=O)c3ccc(S(=O)(=O)N4CCOCC4)cc3)c2C(N)=O)C1	i	/
O=C(Cn1cnc2c(cnn2-c2ccccc2)c1=O)OCc1ccccc1	i	>57

The listing continues:
SMILES	YjeE inh	Bst PK mod
Cc1ccc(-n2ncc3c(NCCCn4ccnc4)ncnc32)c(C)c1	i	/
O=C(CN1C(=O)c2ccccc2S1(=O)=O)NCCSc1ccccc1	i	>57
CC12CCC(C(=O)n3c1nc1ccccc13)C2(C)C (centres undefined)	i	>57
COc1ccc(CNc2nc3nc(C)c(Cl)c(C)n3n2)cc1OC	i	>57
Cc1nn(-c2nnc(C)c(=O)[nH]2)c(C)c1SCC(=O)Nc1ccc(C(C)C)cc1	i	>57
COc1ccc(-n2c(Cc3cccn3C)nnc2SCC(=O)Nc2ccc(C(C)=O)cc2)cc1	i	/
Cc1ccc(O)c(N=Nc2ccccc2)n1	i	/
CCCOc1ccc(C2C(C(=O)c3ccc(C)o3)=C(O)C(=O)N2CCN2CCOCC2)cc1OC (centres undefined)	i	>57
O=C(OCCN1CCOCC1)C(c1ccccc1)c1ccccc1	i	>57
CC(=C(CCOP(=O)(O)O)SC(=O)c1ccccc1)N(C=O)Cc1cnc(C)nc1N	i	/
Cc1cc(N2CCOCC2)cc(C)[n+]1[O-]	i	>57
CCN(CCCNC(=O)c1ccc(N2CCCC2=O)cc1)c1cccc(C)c1	i	>57
CCCCn1c2c(c(=O)n(C)c1=O)C(c1ccc(OC)cc1)N1CCCCCC1=N2 (centres undefined)	i	>57
CC(C)Nc1nc(-c2ccccc2)nc(-n2ccnc2)n1	i	/
c1ccc(Cc2nn3c(-c4ccncc4)nnc3s2)cc1	i	>57
CC(=O)N1CCc2cc(Br)cc(S(=O)(=O)NCCCN3CCCC(C)C3)c21 (centres undefined)	i	>57
O=C(c1ccc(S(=O)(=O)N2CCOCC2)cc1)N(Cc1ccco1)Cc1cccs1	i	>57
CN(C1CCCCC1)S(=O)(=O)c1ccc(S(=O)(=O)N2CCN(CCC#N)CC2)cc1	i	/
O=S(=O)(Cc1ccccc1)N1CCc2ccccc21	?	/
CCC(=O)OC1(C#CCOc2ccc(OC)cc2)CCN(C)CC1	i	>57
COCCNC(=O)CCn1nc(-c2ccc(Cl)cc2)ccc1=O	i	>11.4
CC(=O)C1=C(O)C(=O)N(Cc2ccccc2)C1c1cccs1 (centres undefined)	i	>57
Cc1cccc(C)c1NC(=O)N1CCC(N2CCCCC2)CC1	i	>57
O=c1c2[nH]c3ccccc3c2ncn1C1CCCCC1	i	/
Cc1ccc(OC(=O)CCC(=O)OCCCC(F)(F)C(F)(F)F)cc1	i	/

At a glance, some entries already given:
SMILES	YjeE inh	Bst PK mod
c1ccc(Cc2nn3c(-c4ccncc4)nnc3s2)cc1	i	>57
CC(=O)N1CCc2cc(Br)cc(S(=O)(=O)NCCCN3CCCC(C)C3)c21 (centres undefined)	i	>57

The list goes on:
SMILES	YjeE inh	Bst PK mod
O=C1[C@@H]2[C@H](C(=O)N1O)[C@H]1C=C[C@@H]2C1	/	>25.6
CCOc1ccc(OCC)c(NC(=O)CSc2nc3c(c(=O)n(C)c(=O)n3C)n2CC)c1	i	>57
COc1ccc(N2CCN(c3nc4c(c(=O)[nH]c(=O)n4C)n3Cc3cccc(C)c3)CC2)cc1	i	>57
COc1ccc(CCNC(=O)CCS(=O)(=O)c2cccc3nsnc23)cc1OC	i	>57
O=C(NCc1ccccc1)c1ccc(/C=N/O)nc1	i	/
COc1cccc(NC(C)C(=O)N2CC(C)OC(C)C2)c1 (centres undefined)	i	>57
CCOC(=O)c1c(NC(=O)c2noc3c2CCCC3)sc2c1CCCC2	i	>57
CCc1ccc2nc3c(c(C(=O)O)c2c1)CCC3	i	>57
NCCCc1ccc2oc3ccccc3c2c1	i	/
CN/C(=C\[N+](=O)[O-])NCCSCc1csc(CN(C)C)n1	i	/
Cc1nc2ccccc2n1S(=O)(=O)c1ccc(S(=O)(=O)N2CCCCCC2)cc1	i	>57
CCOC(=O)N1CCN(C(=O)Nc2ccc3nc(C)c(C)nc3c2)CC1	i	/
COC(=O)c1ccc(CSc2ncnc3c2sc2nc(N4CCOCC4)c4c(c23)CCCC4)o1	/	>25.6
COc1ccc(C(=O)CSc2cc(C)nc3nc(C)nn23)cc1OC	i	>57
CCCCN(CC)CCNC(=O)C1c2cc(OC)c(OC)cc2C(=O)N2CCc3ccccc3C12 (centres undefined)	i	>57
COCCCN(C(=O)c1cccnc1SC)c1c(N)n(Cc2ccccc2)c(=O)[nH]c1=O	i	>57
C[C@@](N)(Cc1c[nH]c2ccccc12)C(=O)O	i	/
COc1ccc2c(c1)c(CC(=O)OCC(=O)O)c(C)n2C(=O)c1ccc(Cl)cc1	i	>25.6
Cc1cccc(N(CC(N)=O)C2SC(=O)N(c3ccccc3)C2=O)c1 (centres undefined)	i	>57
Oc1ccccc1Nc1ncnc2c1oc1ccccc12	i	>57
CCn1nc(NC(=O)c2ccncc2)c2cc3ccccc3nc21	i	/
O=C(NCC1CCCO1)C1CCN(c2ccc(S(=O)(=O)N3CCCC3)cc2)CC1 (centres undefined)	i	>57
CCC(=O)[C@@H](c1ccccc1)c1ccccn1	i	/
CO[C@@]12C[C@@H](COC(=O)c3cncc(Br)c3)CN(C)[C@H]1Cc1cn(C)c3cccc2c13	i	/
CC1(C)CC(=O)c2c(-c3cccs3)n[nH]c2C1	i	>11.4
SMILES	YjeE inh	Bst PK mod
CN(C)c1cccc(N=C2C=C(N3CCOCC3)CC(C)(C)C2)c1	i	>57
CCN(CC)c1ccc(-c2nn3c(-c4cccnc4)nnc3s2)cc1	/	5.23*
COc1cccc(-c2ccc3ncnc(NCc4cccnc4)c3c2)c1	i	/
COC(=O)c1ccccc1N1C(=O)[C@@H]2C(c3ccc(Br)cc3)=NO[C@@H]2C1=O	/	>25.6
Cc1ccc(N2CCN(CCc3nc4cc(NS(C)(=O)=O)ccc4n3C)CC2)cc1	i	>57
Cn1c(=O)c2c(nc(N3CCCCC3)n2CCCNC2=NCCCC2)n(C)c1=O	i	>57
COCCn1c(=O)c(C)nc2cnc(OCc3ccccc3)nc21	i	/
COC(=O)c1cc(NC(=O)CC2NCCNC2=O)cc(C(=O)OC)c1 (centres undefined)	i	>57
CCCCC1(C(=O)OCC)CC(CN2CCOCC2)OC1=O (centres undefined)	/	>25.6
COc1ccc(CSc2nc(C)cc(=O)[nH]2)cc1Br	i	>57
c1n[nH]c(NC2=NCCC2)n1	i	>57
CN1CCN(c2ncc3nc(-c4ccc(F)cc4)c(=O)n(Cc4cccs4)c3n2)CC1	i	/
NC(=O)C1CCN(C(c2ccccc2Cl)c2nnnn2CC2CCCO2)CC1 (centres undefined)	i	>57
COc1ccc(CNC(=O)NCc2ccc(OC)c(OC)c2)cc1OC	i	>57
CC[C@]1(C)CC(=O)NC1=O	i	/
CN(c1cccc(NC(=O)COc2ccccc2)c1)S(C)(=O)=O	i	>57
CC(C)CN(C(=O)COC(=O)c1cc2c(s1)CCC2)C1CCS(=O)(=O)C1 (centres undefined)	i	>57
COC(=O)CN1C(=O)C2(OCCCO2)c2cc(Br)ccc21	i	>57
NC(=O)c1ccsc1NC(=O)COC(=O)Cc1ccsc1	i	>57
c1ccc(Nc2ccccc2Nc2ccccn2)nc1	i	>57
Cc1ccc(NC(=O)CSCC(=O)Nc2ncc3c(n2)CC(c2ccco2)CC3=O)cc1 (centres undefined)	i	>57
CCOC(=O)N1CCN(c2ncnc3c2oc2nc(C(C)C)c4c(c23)CCC4)CC1	i	>57
O=C(O)CCCSc1ccccc1	i	/
CCOc1ccc(C2C=C(c3ccc(C)cc3)Nc3nnnn32)cc1 (centres undefined)	i	>57
NC(=O)NCCS[C@H]1CCCC[C@@H]1O	i	/
SMILES	YjeE inh	Bst PK mod
CCc1c(C)nc2ncnn2c1N1CCC(C(=O)Nc2cccc(C(C)=O)c2)CC1	i	>57
CCCC(=O)NCCCc1nc2ccccc2n1CC	i	/
Cc1ccc2oc(=O)ccc2c1	i	/
Cc1ccc(-c2nnn(CC(=O)Nc3cccc4c3CCCC4)n2)o1	i	>57
CC(CCC(=O)Nc1nncs1)C(=O)O (centres undefined)	i	/
O=C(CSc1nc2ccc(S(=O)(=O)N3CCOCC3)cc2[nH]1)N1CCOCC1	i	>57
CC(C)(C)c1ccccc1OCCN1CCCC1	i	/
CC(C)CSc1nc2c(c(=O)[nH]c(=O)n2C)n1CC(O)COc1cccc2ccccc12 (centres undefined)	i	>57
COCCN(CC(=O)NCc1ccc(OC)cc1)C(=O)CCC(=O)Nc1nccs1	i	>57
COc1ccc(/C(O)=C2/C(=O)C(=O)N(CCN(C)C)C2c2ccccn2)cc1OC (centres undefined)	/	>25.6
Cc1nc(Nc2ccccc2)c2nc(-c3ccccc3)n(CCCN3CCCCC3C)c2n1 (centres undefined)	i	/
CCOC(=O)c1c(NC(=O)c2nn(CC)cc2Br)sc2c1CCCCC2	i	>57
O=C(NC1(C(F)(F)F)NC(=O)N(Cc2ccco2)C1=O)c1cccnc1 (centres undefined)	i	>57
CCN(CC)Cc1cc2ccccc2c2c1COC2	i	>57
Cc1nnc(SCCn2c(N3CCCC(C)C3)nc3c2c(=O)n(C)c(=O)n3C)s1 (centres undefined)	i	/
O=C(C1CCCN(S(=O)(=O)c2ccccc2)C1)N1CCCCCC1 (centres undefined)	i	/
c1ccc2oc(SCc3cn4ccsc4n3)nc2c1	i	>11.4
COc1ccccc1CCn1cnc2c3cc(C)ccc3n(C)c2c1=O	i	>57
C=CCn1c(N)c(C(=O)NCC2CCCO2)sc1=S (centres undefined)	i	>57
Cc1[nH]c(=O)[nH]c(=O)c1S(=O)(=O)N1CCCC(C(=O)NCCc2ccc(Cl)cc2)C1 (centres undefined)	i	>57
O[C@H](CCCN1CCN(c2ncc(F)cn2)CC1)c1ccc(F)cc1	i	/
Cc1ccc(S(=O)(=O)NC(CC(=O)NC2CCCC2)c2ccco2)cc1 (centres undefined)	i	>57
Cc1nnc(SCc2cc(=O)[nH]c(N3CCN(Cc4ccccc4)CC3)n2)s1	i	>57
CCC(c1nnnn1Cc1ccc(F)cc1)N(CCCO)Cc1cc2cc3c(cc2[nH]c1=O)OCO3 (centres undefined)	i	>57
O=C(O)[C@@H](S)[C@H](S)C(=O)O	i	/
c1ccc2c(c1)CCCN2Cc1nnnn1CC1CCCO1 (centres undefined)	i	>57
CC(C)Oc1ccc(C2CC(=O)N(c3cccc(C(=O)O)c3)C2=O)cc1 (centres undefined)	i	/
CCc1nnc(NC(=O)CSc2nnc(COc3ccc(C#N)cc3)n2-c2ccccc2)s1	i	>57
CCCn1c(=O)c(C)cn2nc(N)nc12	i	/
